Source: PubChem (National Center for Advancing Translational Sciences (NCATS))
PINK1 expr mod: modulators of PINK1 expression; hit rate 0.2% among 410,000; PINK1 immunofluorescence, high-content cytometry, 24 h; Potency, µM (series often up to 76.6 µM), inactives show top-dose activation (PINK1 increase), usual class: activators; active = well fitted activation curve with a large enough effect; inconclusive = small, poorly fitted or top-dose-only effect; inactive = flat fitted curve, though single readings scatter; cell line not stated here;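 note: potency is the fitted concentration of half-maximal effect; % of control where 0% means no effect; nearly all actives have a fitted effect of over 65% in size; a mitochondrial uncoupler was the plate control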
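Fluorescence from anti-PINK1 antibody, together with nuclear and cell stains, was scanned on a laser-scanning cytometer. Before staining, stable-line cells were incubated 24 hours with compounds at 5 concentrations; primary antibody 12 h at 10 degrees C.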
ClpP mod: qHTS Assay for Activators of ClpP; ATP-dependent Clp protease proteolytic subunit (Bacillus subtilis (strain 168)), P80244; purified B. subtilis ClpP, FRET peptide cleavage, 20 min; Potency, µM (highest dose often 57.5 µM), without a hit: at the highest dose activity change, negative = active; hit rate 1.9% among 340,000; AID 651965, 2013; active = well fitted falling curve with a large enough effect; inconclusive = small, poorly fitted or top-dose-only effect; inactive = no such curve, though single readings can be large or run the other way; note: potency is the fitted concentration of half-maximal effect; the source files actives as falling curves though it sought activators and does not explain the sign; nearly all actives have a fitted effect of over 65% in size; many hits overshoot -100%
Target sequence (P80244 whole entry, looked up): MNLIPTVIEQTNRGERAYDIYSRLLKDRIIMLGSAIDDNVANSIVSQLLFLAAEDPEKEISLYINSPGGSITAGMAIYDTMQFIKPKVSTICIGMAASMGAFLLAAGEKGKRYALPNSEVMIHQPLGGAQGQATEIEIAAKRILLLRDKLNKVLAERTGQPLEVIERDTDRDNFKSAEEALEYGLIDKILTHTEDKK
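FRET quenching reversal measured ClpP activation: 10 microg/mL B. subtilis ClpP at pH 8 with the FRET-FV decapeptide, read at 430 nm after 320 nm excitation. The 20-min minus 0-min signal was scaled between DMSO/no-enzyme wells and ADEP (5.8 microM final).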
Sfp inh: Sfp phosphopantetheinyl transferase inhibition. Q9F4F7. Biochemical Sfp PPTase activity, qHTS. Potency, µM, without a hit: max response, negative = inhibition, hits mostly inhibitors. hit rate 3.5% among 310,000; active = well fitted inhibition curve with a large enough effect; inconclusive = small, poorly fitted or top-dose-only effect, or another doubt; inactive = no such curve, though single readings can be large or run the other way;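 note: the enzyme is Sfp with the accession as filed and its product quenches rhodamine fluorescence; potency is the fitted concentration of half-maximal effect; 0% = enzyme reaction without inhibitor and -100% = no enzyme wells; top concentration of the series not given in the record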
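Sfp 15 nM + cpd, 15 min RT; start w/ rhodamine-CoA 5 uM, BHQ-2-YbbR 12.5 uM (final); 50 mM Hepes pH 7.6, 10 mM MgCl2, 0.01% NP-40, 0.01% BSA; read 525/598 nm at 0 and 30 min.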
D2 ag: agonists of human D2 dopamine receptor (beta-arrestin); P14416; DiscoveRx PathHunter D2 beta-arrestin, luminescence, 90 min; 100% = 57 uM dopamine signal; activation, % (concentration not given with the values); hit rate 0.084% among 360,000; in the data active = activation above about 40%; inconclusive = about 15% to 40%; inactive = below about 15%; note: compound concentration not given in the record; the text of the record calls up to 30% inactive
Target sequence (P14416 whole entry, looked up): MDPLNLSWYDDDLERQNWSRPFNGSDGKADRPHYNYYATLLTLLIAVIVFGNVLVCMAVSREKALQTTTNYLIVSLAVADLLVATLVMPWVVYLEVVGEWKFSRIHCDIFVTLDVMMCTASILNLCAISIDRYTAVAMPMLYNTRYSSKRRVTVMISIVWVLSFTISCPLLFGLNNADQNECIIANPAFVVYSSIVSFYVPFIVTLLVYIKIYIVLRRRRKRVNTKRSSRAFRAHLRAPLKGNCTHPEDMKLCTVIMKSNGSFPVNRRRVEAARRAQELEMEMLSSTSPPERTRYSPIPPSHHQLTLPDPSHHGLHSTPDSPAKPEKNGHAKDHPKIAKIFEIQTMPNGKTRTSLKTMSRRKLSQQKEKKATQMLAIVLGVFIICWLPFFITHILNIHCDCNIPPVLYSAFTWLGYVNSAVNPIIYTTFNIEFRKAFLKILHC
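Agonist mode: compounds alone added to overnight-plated D2 PathHunter cells for 90 min at 37 C, with 57 uM final dopamine (EC100) defining full response. Beta-arrestin recruitment detected by chemiluminescent reagent, read after 1 h at ambient temperature.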
Menin-MLL FL inh: menin-MLL binding inhibition, fluorescein peptide; Fluorescence polarization, fluorescein-MLL peptide displacement from menin; FP activity change, % at 61.4 µM; 290,000 tested, under 10 active; AID 1766; inconclusive = falling polarisation curve, or a change in total fluorescence; inactive = total fluorescence flat and polarisation flat or rising; no compound was filed as active; the % refers to the polarisation; negative = inhibition;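 note: % of control where 0% means no effect; inhibitors lower the polarisation; unlabelled MLL peptide was the positive control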
gsp ag: activates gsp, the McCune-Albright syndrome mutation; gsp mutant cells, cAMP HTRF, 30 min; control for the full effect not named in the record; Potency, µM (titrated, usually from 76.9 µM), for the others: at the top dose activation (cAMP increase), usual class: activators; hit rate 0.13% among 340,000; AID 624287; active = well fitted activation curve with a large enough effect; inconclusive = small, poorly fitted or top-dose-only effect, or another doubt; inactive = no such curve, though single readings can be large or run the other way; cell line not stated here;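 note: phosphodiesterase inhibitor Ro 20-1724 added with compounds to block cAMP breakdown; potency is the fitted concentration of half-maximal effect; nearly all actives have a fitted effect of over 60% in size; about a fifth of the inactives were tested at one dose only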
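Cells in DMEM/10% FBS with G418 were pretreated with compounds in DMSO plus […] (300 uM stock) for 30 min at 37C. cAMP was measured by HTRF (cAMP-d2 plus anti-cAMP antibody-K) after 30 min at room temperature.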
gsp antagonist: gsp mutant antagonism | gsp-mutant cells, cAMP HTRF, 30 min; control for the full effect not named in the record | Potency, µM (top dose mostly 76.9 µM), inactives show top-dose activity change, negative = inhibition, usual class: inhibitors | AID 624288 | hit rate 0.4% among 340,000; active = falling curve of any shape with a large fitted effect; inconclusive = falling curve, mostly with a smaller effect; inactive = flat or rising curve; cell line not stated here;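 note: intracellular cAMP measured with PDE inhibitor Ro 20-1724 present during compound exposure; potency is the fitted concentration of half-maximal effect; % is set by controls: 0 for no effect and ±100 for the full control effect; nearly all actives have a fitted effect of over 65% in size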
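HTRF cAMP measurement after 30 min RT detection following 30 min, 37C compound treatment alongside […] (added as 300 uM solution) in G418-selected cells seeded at 2000/well and grown 16–24 h.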
The depositor's hits bear a star; ? = inconclusive; / = not tested or not shown; & = joins results of further samples; [ ] = remark or other dose.

mol	D2 ag	Sfp inh	ClpP mod	PINK1 expr mod	gsp antagonist	Menin-MLL FL inh	gsp ag
O=C(Nc1ccc2c(c1)OCCO2)c1cnc2ccccn2c1=O	-2.0	/	-1.6%	-4.1%[38.3 µM]	-3.0%	/	8.91µM*
CCCn1c(=O)c2c(C(F)(F)F)cc(-c3ccco3)nc2n(CCC)c1=O	-0.4	12.2%	1.78µM*	-5.7%[38.3 µM]	32.7%[activator]	4.0	-31.2%[inhibitor]
CCc1ccc(NC(=O)c2ccc3c(c2)CCN3S(C)(=O)=O)cc1	-2.5	/	0.5%	5.6%	/	/	-2.7%
O=C(O)CC1(CC(=O)Nc2cccc(C(=O)O)c2)CCCC1	-5.8	0.4%	-6.8%	-0.4%	4.7%	-6.3	-57.6%[inhibitor]
COCCn1c(N)c(Sc2ccccc2)c(=O)[nH]c1=O	-5.4	0.3%	/	-3.0%	5.3%	-0.1	-14.0%
C[C@@H]1CN([C@H](C)CO)C(=O)c2cc(Br)cnc2O[C@H]1CN(C)C(=O)Cc1ccccc1	-0.1	/	-0.1%	0.8%	/	/	25.3%
Cc1sc(N)c(C#N)c1C	11.3	-26.2%	14.1µM*	-1.2%	1.9%	-0.2	?
O=C1CC(c2ccccc2)n2nc(NS(=O)(=O)c3ccccc3)nc2N1 (stereo unspecified)	0.0	-6.7%	0.6%	-1.1%	8.7%	2.4	25.5%
O=C(CCNC(=O)c1ccccc1Cl)Nc1cccc(S(=O)(=O)N2CCOCC2)c1	0.6	/	-1.0%	-1.6%	5.7%	/	-54.9%[inhibitor]
COc1cccc(Cn2nnc3c(=O)[nH]c(C4CCCN(C(=O)c5ccccc5Cl)C4)nc32)c1 (stereo unspecified)	-2.6	-21.0%	-0.4%&-1.5%	-1.7%&0.7%	5.2%	4.0	-17.4%
COc1ccc(C(=O)COC(=O)COc2cccc3c2OC(C)(C)C3)c(OC)c1	-0.1	/	/	-0.9%	-14.5%	/	-8.5%[15.4 µM]
COc1ccc(N2CCN(C(=O)c3ccc(Cn4nc(C)c([N+](=O)[O-])c4C)o3)CC2)cc1	5.3	16.7%	1.0%	1.2%	-0.3%	0.6	-58.7%[inhibitor]
O=C(N/N=C/c1ccc(Sc2nc3ccccc3s2)c([N+](=O)[O-])c1)c1ccccn1	0.8	18.9%	1.5%	4.6%[38.3 µM]	-6.4%	-0.4	4.5%
C[C@@H]1CN([C@H](C)CO)C(=O)CCCn2nncc2CO[C@H]1CN(C)S(=O)(=O)c1ccc(C#N)cc1	1.0	/	0.8%	1.7%	/	/	-82.1%[inhibitor]
O=C(N/N=C/c1ccncc1)c1cccc(NC(=O)c2ccc(Cl)cc2)c1	-2.5	-18.7%	-1.3%	2.6%	-9.1%	5.5	-46.5%[inhibitor]
CCOc1ccc(C(=O)CCC(=O)NNC(=O)CCN2CCN(c3ccccc3)CC2)cc1	9.6	/	3.2%	-0.5%	1.7%	/	-10.4%[15.4 µM]
Cc1occc1C(=O)N1CCN(c2ccc([N+](=O)[O-])cc2)CC1	-1.1	-4.3%	1.6%	2.6%	-9.6%	/	-2.4%
NC(=O)C(=O)N/N=C1\CCc2ccccc21	-2.6	20.0%	?	-0.6%	2.9%	0.6	0.1%[15.4 µM]
NC(=O)N/N=C/c1ccc(OCc2cccc(Cl)c2)cc1	-3.6	26.6%	/	15.4%	11.6%	-3.8	8.1%[15.4 µM]
N=C1C(c2ccc(Br)cc2)=C(O)C2CCc3ccccc3N12 (stereo unspecified)	-1.3	4.0%	-0.9%	0.6%[38.3 µM]	-10.2%	3.3	-6.1%
O=C(NCc1ccccc1Cl)c1ccc(S(=O)(=O)NCc2ccco2)cc1	-2.6	/	-1.2%	2.1%	-8.5%	/	-27.0%
CN(CC(=O)Nc1ccc(F)c(F)c1F)C(=O)C1CCCC1	-0.5	/	-0.9%	-1.1%	40.1%[activator]	/	11.2%
COc1ccc(C(=O)Nc2cccc3c2CCCC3)c(OC)c1	1.1	/	/	0.7%	-3.6%	/	-1.9%[15.4 µM]
Cc1ccccc1OCC(=O)NC(=S)Nc1ccccc1N1CCN(S(C)(=O)=O)CC1	-1.0	16.3%	-1.0%	1.4%	?	/	3.9%
O=C(Oc1ccc(Oc2ccccc2)cc1)N1CCC(O)CC1	0.1	7.4%	0.8%	3.5%	-10.1%	4.6	5.2%[15.4 µM]
O=C(CCS(=O)(=O)c1ccccc1)Nc1ccc(-c2nc3ccccc3s2)cc1	-1.4	3.0%	/	0.9%	6.8%	2.8	-13.0%[15.4 µM]
Cc1c(OCc2ccc([N+](=O)[O-])cc2)ccc2c3c(c(=O)oc12)CCC3	-5.2	11.4%	-2.0%	15.4%	0.8%	2.3	-13.8%[15.4 µM]
CCOc1ccc(/C=N/NC(=O)c2c(-c3ccccc3)noc2C)cc1	-16.5	5.6%	-1.5%	5.4%	13.7%	/	7.0%[15.4 µM]
CCCCCNCc1ccc(Br)cc1	-2.6	2.4%	-1.3%	/	2.6%	4.4	4.7%
Cc1onc(-c2c(F)cccc2Cl)c1C(=O)N=C(N)N1CC(C)OC(C)C1 (stereo unspecified)	-1.5	2.4%	/	-0.1%	-13.6%	-2.3	11.5%[15.4 µM]
Cc1cc(NC(=O)c2ccc(F)cc2)n(CCOC(=O)c2ccc(F)cc2)n1	1.3	4.1%	-5.3%	2.9%	-3.5%	2.8	-16.7%
CN(C(=O)C1CC1)c1ccccc1	-0.3	/	0.3%	0.2%	/	/	-22.4%
Cc1ccccc1CN1C[C@@H]2C[C@@H](c3cn[nH]c3-c3ccc(F)cc3)N3CCC[C@@]23C1=O	-3.5	7.9%	/	-1.2%	-23.2%	1.0	3.3%[15.4 µM]
CC(=O)Nc1cccc(-c2csc(Nc3ccc(Cl)cn3)n2)c1	-5.0	12.6%	-9.7%	3.6%	-27.6%	-5.7	-0.2%
N#Cc1ccc(S(=O)(=O)NCCc2ccncc2)cc1	-0.7	/	/	0.9%	6.6%	/	?
FC(F)(F)c1ccc(Cl)c(N/N=C/c2ccc(N3CCOCC3)s2)c1	?	-6.3%	-4.9%	16.7%	-6.1%	0.2	0.0%
COc1cc(C2CC(=O)Nc3n[nH]c(-c4ccccc4)c32)cc(OC)c1OC (stereo unspecified)	-1.9	7.3%	-0.9%	8.1%	4.3%	1.5	-45.2%[inhibitor]
COc1cc(NC(=O)CN2C(=O)COc3ccccc32)cc(OC)c1	-3.8	/	/	-0.5%	11.3%	/	?
CCOC(=O)c1ccc(N2C(=O)CC(Nc3ccc(CCO)cc3)C2=O)cc1 (stereo unspecified)	-3.7	4.4%	0.1%	1.3%	-10.8%	0.6	-3.7%
O=C(CN1C(=O)NC2(CCCC2)C1=O)OCc1cccc(Br)c1	6.1	/	-1.3%	1.1%	5.2%	/	-4.3%
C=C(C)Cn1c(C(C)NC(=O)CCC)nc2ccccc21 (stereo unspecified)	-2.6	-2.5%	-0.2%	-0.4%	-2.2%	0.0	0.5%
CC(=O)Nc1cccc(C(=O)OCC(=O)NC(=O)NC2CCCC2)c1	-1.7	/	-4.7%	0.8%	/	/	-6.8%
CC(=O)C1CCN(Cc2ccccc2)CC1	-1.0	13.6%	-4.4%	-1.0%	-11.9%	0.3	6.2%
O=C(C#Cc1ccccc1)c1ccco1	-8.2	?	-0.7%	-1.3%	4.3%	0.0	?
Cc1noc(C)c1C(=O)N1CCC2(CCCN(c3ccccn3)C2)CC1	/	6.1%	/	0.1%	/	-1.0	/

Entries from the list above containing a Cl atom (eight):
mol	D2 ag	Sfp inh	ClpP mod	PINK1 expr mod	gsp antagonist	Menin-MLL FL inh	gsp ag
O=C(CCNC(=O)c1ccccc1Cl)Nc1cccc(S(=O)(=O)N2CCOCC2)c1	0.6	/	-1.0%	-1.6%	5.7%	/	-54.9%[inhibitor]
COc1cccc(Cn2nnc3c(=O)[nH]c(C4CCCN(C(=O)c5ccccc5Cl)C4)nc32)c1 (stereo unspecified)	-2.6	-21.0%	-0.4%&-1.5%	-1.7%&0.7%	5.2%	4.0	-17.4%
O=C(N/N=C/c1ccncc1)c1cccc(NC(=O)c2ccc(Cl)cc2)c1	-2.5	-18.7%	-1.3%	2.6%	-9.1%	5.5	-46.5%[inhibitor]
NC(=O)N/N=C/c1ccc(OCc2cccc(Cl)c2)cc1	-3.6	26.6%	/	15.4%	11.6%	-3.8	8.1%[15.4 µM]
O=C(NCc1ccccc1Cl)c1ccc(S(=O)(=O)NCc2ccco2)cc1	-2.6	/	-1.2%	2.1%	-8.5%	/	-27.0%
Cc1onc(-c2c(F)cccc2Cl)c1C(=O)N=C(N)N1CC(C)OC(C)C1 (stereo unspecified)	-1.5	2.4%	/	-0.1%	-13.6%	-2.3	11.5%[15.4 µM]
CC(=O)Nc1cccc(-c2csc(Nc3ccc(Cl)cn3)n2)c1	-5.0	12.6%	-9.7%	3.6%	-27.6%	-5.7	-0.2%
FC(F)(F)c1ccc(Cl)c(N/N=C/c2ccc(N3CCOCC3)s2)c1	?	-6.3%	-4.9%	16.7%	-6.1%	0.2	0.0%
